Screens: PubChem BioAssay, National Center for Advancing Translational Sciences (NCATS)
TsaE inh – YjeE (TsaE) inhibition, E. coli; P0AF67; purified YjeE, fluorescence polarisation of a bound ADP probe; Potency, µM; 0.05% of 71,000 active; active = well fitted falling curve; inconclusive = weaker or top-dose-only fall, or a rising curve; inactive = flat or poorly fitted curve;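 further: top concentration of the series not given in the record; excess ADP was the control for the full effect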
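Purified YjeE (10 uM) with BODIPY Texas Red-labeled ADP probe (2 uM); compounds pin-transferred, 15 min at room temperature. Binding inhibition read as decreased fluorescence polarization; ADP titration as control.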
PK Bst – alters activity of Bacillus stearothermophilus pyruvate kinase. partly purified Bacillus stearothermophilus pyruvate kinase, luminescence ATP production; ribose 5-phosphate activator present at AC10. Potency, µM. 1.2% of 51,000 active. AID 361; in the data active means potency below about 11 µM; inconclusive means mostly about 12 µM to 25 µM; inactive means weaker than that;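 the screen sought inhibitors and activators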;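 further: potency means the concentration at half of the fitted maximal effect; scaled between full activation by ribose 5 phosphate and full inhibition by luteolin; about four in five hits inhibit and the cells do not say which; series up to 57 µM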
Starred values were filed as active, the others as inactive; i = inactive; ? = inconclusive; / = no result given. Only part of the results is shown. The share of hits here may be higher or lower than overall.

SMILES	TsaE inh	PK Bst
CCC(c1nnnn1Cc1ccco1)N(Cc1ccccc1OC)Cc1cc2cc(C)ccc2[nH]c1=O (configuration not stated)	i	>57
CN(C)c1ccc(C(=O)N2CC(=O)N(CCc3ccccc3)C(=O)C2)cc1	i	>57
CCSc1nnc(-c2ccc(S(=O)(=O)NCc3cccs3)cc2)o1	i	>57
CCC(C)(C)n1nnnc1C(c1ccc(OC)c(OC)c1)N1CCN(c2ccc(OC)cc2)CC1 (configuration not stated)	i	>57
CC(C)OC(=O)CC12CN3CC(CC(=O)OC(C)C)(CN(C1)C(=O)c1ccccc1C3=O)C2=O	i	/
O=C(Nc1nc2nc(-c3ccccc3)cc(-c3ccccc3)n2n1)c1ccco1	i	>57
C/C=C/COc1nc2c(c(=O)n(C)c(=O)n2C)n1C	i	>57
O=C(NC1=NCCS1)c1cccc(NC(=O)c2ccco2)c1	i	/
COc1ccc(OC)c(S(=O)(=O)Nc2c(F)cccc2F)c1	i	>57
COCCN(CCOC)Cc1c(C)[nH]c2c(C)c(C)ccc2c1=O	i	/
CCN(CC)S(=O)(=O)c1cccc(-c2nnc(SCCCC(=O)c3ccc(F)cc3)o2)c1	i	>57
Cc1cc(-c2ccco2)c(C#N)c2nc3ccccc3n12	i	/
O=C(O)c1cc(CN2CCOCC2)oc1-c1ccccc1	i	>57
Nc1ccn([C@H]2CC[C@@H](CO)O2)c(=O)n1	i	/
COCC(=O)Nc1c(I)c(C(=O)NC[C@@H](O)CO)c(I)c(C(=O)N(C)C[C@@H](O)CO)c1I	i	/
COc1ccc(C(=O)O)cc1S(=O)(=O)Nc1cccc(C(F)(F)F)c1	i	/
CCc1[nH]nc2c1C1(CCOC1C)C(C#N)=C(N)O2 (configuration not stated)	i	>57
C/C(=C1\SC(N2CCOCC2)=NC1=O)c1ccc(C)cc1	i	>57
O=C(c1cccc(F)c1)N1CCC2(CC1)CN(Cc1ccccc1)C2	i	/
CCOC(=O)c1c(NC(=O)Cc2cccs2)sc(C(=O)N2CCCCC2)c1C	i	>57
COCC(=O)N1CCC[C@@]2(CCN(c3ccncc3)C2)C1	i	/
COc1ccc(CCNc2nc(=O)[nH]nc2C)cc1OC	i	/
FC(F)(F)C(Cl)Br (configuration not stated)	i	/
CC(C)n1c(Sc2nccn2C)nc2c1c(=O)n(C)c(=O)n2C	i	>57
Cc1cc(N2CCCC2)ccc1/C=N/n1cnnc1	i	/
O=C(NCc1ccco1)c1scc2c1OCCO2	i	>57
N#Cc1nc(COc2ccccc2)oc1N1CCN(c2cccc(Cl)c2)CC1	i	>57
O=c1[nH]c(-c2ccccc2)c(-c2ccccc2)[nH]1	i	>57
O=C(Nc1scc(-c2ccccc2)c1C(=O)O)c1ccco1	i	/
COC(=O)c1ccc(COc2nc(C)cc(C)c2C#N)o1	i	>57
O=C(CSc1nnc(-c2cccnc2)o1)OC1CCCCC1	i	>57
C=C1c2cc(OC)ccc2NC(=O)N1CC	/	>26
Cc1ccc(N(CN2C(=O)C3CC=CCC3C2=O)C(=O)c2ccco2)cc1Cl (configuration not stated)	/	>26
CC(=O)N1CCc2cc(S(=O)(=O)NCCC(=O)Nc3cccc(C)c3C)ccc21	i	>57
CCn1c(SCCC(=O)Nc2ccccc2)nnc1-c1ccc(OC)cc1	i	>57
Cc1ccc(N2C(=O)C3ON(c4ccccc4)C(c4ccncc4)C3C2=O)c(C)c1 (configuration not stated)	/	>26
NC(=O)C1(N2CCCCC2)CCN(C(=O)CSc2nc3ccccc3[nH]2)CC1	i	>57
CN1C(=O)C2(c3ccccc31)C1CCCC=C1C(C#N)=C(N)C2(C#N)C#N (configuration not stated)	/	>26
CCOc1ccc2[nH]c(C)c(CN(C)C)c(=O)c2c1	i	/
O=C(NCC1CCCO1)c1ccc(CS(=O)(=O)c2ccc(Br)cc2)o1 (configuration not stated)	i	/

3 compounds drawn at random from those above:
SMILES	TsaE inh	PK Bst
CC(=O)N1CCc2cc(S(=O)(=O)NCCC(=O)Nc3cccc(C)c3C)ccc21	i	>57
CCn1c(SCCC(=O)Nc2ccccc2)nnc1-c1ccc(OC)cc1	i	>57
COC(=O)c1ccc(COc2nc(C)cc(C)c2C#N)o1	i	>57

Ordered by number of heavy atoms (low to high): five of the compounds above.
SMILES	TsaE inh	PK Bst
C=C1c2cc(OC)ccc2NC(=O)N1CC	/	>26
O=c1[nH]c(-c2ccccc2)c(-c2ccccc2)[nH]1	i	>57
O=C(NCC1CCCO1)c1ccc(CS(=O)(=O)c2ccc(Br)cc2)o1 (configuration not stated)	i	/
CN1C(=O)C2(c3ccccc31)C1CCCC=C1C(C#N)=C(N)C2(C#N)C#N (configuration not stated)	/	>26
NC(=O)C1(N2CCCCC2)CCN(C(=O)CSc2nc3ccccc3[nH]2)CC1	i	>57

Further entries
SMILES	TsaE inh	PK Bst
Cc1ccc(C)c(CN2CCNC2=O)c1	i	>57
C=CCn1c(COc2ccccc2)nnc1SCc1ccc(C#N)cc1	i	>57
O=C(c1csnn1)N1CCC2(CCCN(c3ccc(-c4ccccc4)cc3)C2)CC1	i	/
Cc1nc2scc(-c3ccccc3)c2c(=O)n1N	i	i
Cn1ccnc1SCC(=O)Nc1ccc(Oc2ccccc2)cc1	i	>57
CCOC(=O)c1c(C)[nH]c(C(C)=O)c1C	i	/
CCOc1ccc(NC(=O)Nc2ccc3c(c2)nnn3C)cc1	i	>57
CCOCCSc1nnc2nc(C)cc(C)n12	i	>57
CCOC(=O)c1oc2ccccc2c1NC(=O)c1ccccc1OC	i	/
CC(C)(C)NC(=O)C1CC(=O)OC1(C)C (configuration not stated)	i	>57
Cc1ccc(S(=O)(=O)N(CC(O)CN2CCCCC2)c2ccccc2)cc1 (configuration not stated)	i	/
O=C(OCCCCN1C(=O)c2ccccc2C1=O)c1ccc(S(=O)(=O)N2CCCC2)cc1	i	>57
Cc1ccc(NC(=O)Cc2nn(C)c(=O)c3ccccc23)cc1F	?	>57
COc1ccccc1Nc1nc(N)nc(-c2cc3ccccc3o2)n1	i	/
COc1ccc(C(=O)c2cn[nH]c2-c2cc(Cl)ccc2O)cc1	i	/
CN(C)CCCN1c2ccc3ccccc3c2Sc2cccc(Cl)c21	i	/
CCc1ccc(NC2=CC(=O)CC(c3ccco3)C2)cc1 (configuration not stated)	i	/
Cc1ccnc(NS(=O)(=O)c2ccc(NS(=O)(=O)Cc3ccccc3)cc2)n1	i	/
CCCOC(=O)C1=C(C)NC2=C(C(=O)CCC2)C1c1cccc(OC)c1OC (configuration not stated)	i	/
CC1CCN(Cc2nc(-c3ccccc3)no2)CC1	i	>57
CCOC(=O)c1ccccc1NC(=O)Cn1cnc2c(cnn2C(C)(C)C)c1=O	i	>57
O=S(=O)(NCC1CC1)c1cccc(S(=O)(=O)N2CCCC2)c1	i	>57
N[C@H](CS(=O)O)C(=O)O	i	/
CC(N)C12CC3CC(C1)CC(C(C)N)(C3)C2 (configuration not stated)	i	>57
COc1cccc(CNC(=O)C2CCN(S(=O)(=O)c3cccc4cccnc34)CC2)c1	i	/
Cc1cc(NC(=O)CSc2nc3c(c(=O)n(C)c(=O)n3C)n2C(C)C)no1	i	>57
CC(Sc1nnc(Cn2c(=O)sc3ccccc32)n1C)c1ccccc1 (configuration not stated)	i	/
CCOc1ccccc1C(=O)Nc1ccc(-c2nnc(-c3ccc(C)cc3)o2)cc1	i	>57
CCOc1ccc(N2C(=O)CC(n3nc(C)cc3C)C2=O)cc1 (configuration not stated)	i	>57
COc1ccc(-n2c(SCCC(=O)O)nnc2-c2ccncc2)cc1	i	>57
CCN(C(=O)CCS(=O)(=O)c1ccc(Br)cc1)c1ccc2c(c1)OCO2	i	>57
CC(C)(C)COS(=O)OCC(C)(C)C	i	/
Cc1ccc2nc(C(O)C(O)c3nc4ccc(C)cc4[nH]3)[nH]c2c1 (configuration not stated)	i	/
CCn1c2ccccc2c2nc3cc(S(=O)(=O)N4CCOCC4)ccc3nc21	i	/
CCOc1cc(S(=O)(=O)N2CCN(c3ccc(F)cc3)CC2)c(OCC)cc1-n1cnnn1	i	>57
CC1Cc2ccccc2N1C(=O)Cn1c(=O)oc2cc(S(=O)(=O)NC3CCCC3)ccc21 (configuration not stated)	i	/
O=C(Nc1cccc(-c2nc3ncccc3o2)c1)c1cc2ccccc2o1	i	/
CN(CC(=O)NC1CCCCCCC1)S(=O)(=O)c1cccc2cccnc12	i	/
CCN(CC)CC(O)COc1ccccc1C(=O)CCc1ccccc1 (configuration not stated)	i	/
OCCNc1ncnc2c1ncn2[C@@H]1O[C@@H](CO)[C@H](O)[C@@H]1O	i	/
CCc1cccc(OCC(=O)Nc2ccc(S(=O)(=O)Nc3onc(C)c3C)cc2)c1	i	/
COc1ccc(C)cc1-n1nnnc1SCC(=O)c1cc(C)n(Cc2ccco2)c1C	i	>57
COc1ccccc1NC(=O)CN1CCN(CC(=O)Nc2cc(NC(C)=O)ccc2OC)CC1	i	>57
CCOc1ccc(CNC(=O)C2CCN(S(=O)(=O)CC)CC2)cc1OC	i	>57
CCN(CC)C(=O)CSc1nnc(-c2ccco2)n1Cc1ccco1	i	>57
Cc1cccc(OCC(=O)Nc2ccc(N3CCCC3)cc2)c1C	i	/
O=C1CCN=C(Nc2ccc(F)cc2)N1Cc1ccccc1	i	>57
Brc1ccc(-c2nnc3n2-c2ccccc2CC3)cc1	i	>57
COC(=O)c1ccsc1NC(=O)CSc1nnnn1Cc1ccccc1	i	>57
Cc1ccc2c(c1)c(-c1ccccc1)nc1nncn12	i	/
COc1ccc(-c2nn3c(-c4ccccc4)nnc3s2)cc1OC	i	/
CC(=O)Nc1ccc(N2C(=O)CSC2c2ccc(F)cc2)cc1 (configuration not stated)	i	>57
CCn1c(-c2ccsc2)nc2c1c(=O)[nH]c(=O)n2Cc1ccccc1	i	>57
CCN(CCO)C[C@H]1CCC[C@H]2CCCC[C@@H]21	i	/
CCCCn1nnc(NC(=O)c2sc3cc(Cl)ccc3c2Cl)n1	i	/
C=C1[C@@H](C)C2[C@H](Cc3ccccc3)NC(=O)[C@]23OC(=O)CC[C@H](O)CCC[C@H](C)C/C=C/[C@H]3[C@@H]1O (some centres not stated)	/	>26
COc1ccc(N=c2oc3cc(O)ccc3cc2C(=O)NCC2CCCO2)cc1 (configuration not stated)	i	>57
O=C(NCCC1=CCCCC1)C1CCCN(S(=O)(=O)c2cccc3cccnc23)C1 (configuration not stated)	i	/
CCOC(=O)C(Cc1ccccc1)NC(=O)Cn1nnc(-c2ccccc2)n1 (configuration not stated)	i	>57
CCCCOCCCNC1=NCCCCC1	i	>57
Continuation.
SMILES	TsaE inh	PK Bst
O=C(CSc1nnnn1Cc1ccccc1)NCC(=O)c1ccccc1	i	>57
CCOC(=O)c1c(NC(=O)c2cccs2)sc(C(=O)N2CCOCC2)c1C	i	>57
c1ccc(Cn2ccnc2SCc2nnc(-c3ccccc3)o2)cc1	i	>57
O=C(CSc1nc2ccccc2c2nc3ccccc3n12)NCc1ccco1	i	>57
CCc1nc2ccccc2n(CCOCCn2c(=O)c(CC)nc3ccccc32)c1=O	i	>57
CSc1ccc(-c2nnn(Cc3ccccn3)n2)cc1	i	>11
Nn1c(COc2ccccc2)nnc1SCC(=O)O	i	>57
Cc1ccccc1-n1c(SCC(=O)N2CCN(c3ccccc3)CC2)nnc1-c1ccncc1	i	>57
O=C(Cn1nc(Cc2cccnc2)c2ccccc2c1=O)N1CCN(C(=O)c2ccco2)CC1	i	/
COc1ccc(OC)c(S(=O)(=O)N(C)CC(=O)Nc2cc(Cl)ccc2OC)c1	i	>57
CCOC(=O)c1ccc(NC(=O)NCc2ccncc2)cc1	i	>57
O=C(c1ccccc1-c1ccccc1)N1CCCC1	i	>57
CCn1ncc(Cl)c1C(=O)Nc1cc(Cl)ccc1Cl	i	>57
Cn1c(N2CCC(C(N)=O)CC2)nc2c1c(=O)n(Cc1cccc(Br)c1)c(=O)n2C	i	?
COc1cccc(Nc2ncc3nc(CCc4ccccc4)c(=O)n(C)c3n2)c1	i	/
COc1cccc(N(CC(=O)NCc2cccnc2)S(C)(=O)=O)c1	i	/
COC(=O)c1nn2c(C(F)(F)F)cc(-c3ccc(Br)o3)nc2c1Br	/	>26
CCc1ccc(N2CCCn3c2nc2c3c(=O)n(CCN3CCOCC3)c(=O)n2C)cc1	i	>57
COc1ccccc1-c1cc(C(=O)Nc2cc(C)on2)no1	i	>57
COc1ccc(C(C#N)C2(C)OCCO2)cc1OC (configuration not stated)	i	/
CCn1c2ccccc2c2nc3cc(OC)c(OC)cc3nc21	i	/
COC(=O)C1=C(C)NC(C)=C(C(=O)OC)C1c1cc2cc(C)ccc2[nH]c1=O	i	>57
Cc1nc2cc(-n3ccc(=O)cc3)ccc2n1-c1ccccc1	i	>57
Cc1cc(-n2nc(C)cc2C)nc(NS(=O)(=O)c2ccccc2)n1	i	/
COC(=O)c1ccccc1NC(=O)C1CCCN(S(C)(=O)=O)C1 (configuration not stated)	i	>57
O=C(Oc1ccc(-n2cnnn2)cc1)c1ccco1	i	>57
NC(=O)CS(=O)(=O)c1nc2ccccc2n1CC(=O)N1CCCCC1	i	>57
c1nc(NC2CC2)c2cc(-c3ccoc3)ccc2n1	i	/
COc1ccc(S(=O)(=O)NCCCCCC(=O)NCCCN2CCOCC2)cc1	i	>57
COC(=O)c1ccc2c(=O)n(CCO)c(=S)[nH]c2c1	i	>57
COc1cccc(NC(=O)/C=C\c2ccc(Cl)cc2)c1	i	/
CCC(=O)Nc1nnc(CSCc2ccccc2)s1	i	>57
CCN(c1cccc(C(F)(F)F)c1)S(=O)(=O)c1ccc2c(c1)CCN2C(=O)C1CC1	i	>57
